VDR inh – inhibitors of human vitamin D receptor; VDR-SRC2-3 peptide fluorescence polarization, 2 h; Potency, µM, without a hit: max response, negative = inhibition, actives largely listed as inhibitors; 0.93% of 400,000 active; active = well fitted inhibition curve with a large enough effect; inconclusive = small, poorly fitted or top-dose-only effect, or another doubt; inactive = no such curve, though single readings can be large or run the other way; note: series mostly up to about 120 µM
Target sequence (P11473 whole entry, looked up): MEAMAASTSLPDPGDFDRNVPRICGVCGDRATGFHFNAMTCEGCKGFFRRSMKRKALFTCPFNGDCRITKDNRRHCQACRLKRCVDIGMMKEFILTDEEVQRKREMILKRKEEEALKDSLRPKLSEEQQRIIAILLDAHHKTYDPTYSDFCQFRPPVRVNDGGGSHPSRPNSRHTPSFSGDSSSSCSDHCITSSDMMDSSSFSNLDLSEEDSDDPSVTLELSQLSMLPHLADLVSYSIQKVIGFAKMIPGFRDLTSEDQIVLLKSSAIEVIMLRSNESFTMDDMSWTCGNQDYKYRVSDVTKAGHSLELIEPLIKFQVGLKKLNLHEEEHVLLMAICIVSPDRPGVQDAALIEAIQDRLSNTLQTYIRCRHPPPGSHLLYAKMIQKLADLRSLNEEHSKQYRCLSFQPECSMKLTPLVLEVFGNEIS
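FP read-out; VDR + SRC2-3 coactivator peptide; 23 nl compound by pintool; 2 h RT incubation; reagents held at 4 deg C, protected from light.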
Active calls of the source: *; ? = inconclusive; & = joins results of further samples; [ ] = another dose, or the depositor's remark. % is set by controls: 0 for no effect and ±100 for the full control effect; potency is the fitted concentration of half-maximal effect. An excerpt, so the mix of outcomes need not match the whole.

SMILES | VDR inh
O=C(c1cccc(N2C(=O)c3ccccc3C2=O)c1)N1CCCC(C(F)(F)F)C1 (stereo unspecified) | 5%
CCOC(=O)C1=C(COC(=O)/C=C/c2ccccc2Cl)NC(=O)NC1C (stereo unspecified) | 12%
CCNC(=S)NCC | 7%
N#Cc1cccc(C(c2nnnn2C2CCCC2)N2CCCCCC2)c1 (stereo unspecified) | 19%
Cc1cccc(NC(=S)NNC(=O)c2ccc(O)cc2O)c1C | 4%
FC(F)Oc1ccc(NC(=S)NCc2nc3ccccc3[nH]2)cc1 | -4%
CC1(C)CC(=O)C(C=Nc2ccc(C(=O)c3ccccc3)cc2N=CC2=C(O)CC(C)(C)CC2=O)=C(O)C1 | ?
COc1ccc(S(=O)(=O)N2CCCCCC2)cc1NC(=O)c1ccccc1F | 1%
CCN(c1ccc(NC(=O)COC(=O)/C=C/c2ccco2)cc1)C(C)C | -9%
CCCCNC(=O)N1CCN(c2ccccc2OC)CC1 | -1%
CC(C)C(NC(=O)c1cccs1)C(=O)NC1CCCCC1 (stereo unspecified) | -11%
CCC(C)N(C(=O)Cn1nnc2ccccc21)C(C(=O)Nc1ccc(F)cc1)c1cccc(OC)c1 (stereo unspecified) | -5%
O=C(c1cccc([N+](=O)[O-])c1)N1CCCC(C(=O)N2CCCCCC2)C1 (stereo unspecified) | 5%
Nc1n[nH]c(-c2ccc(Br)cc2)c1Cl | 10%
c1ccc(CO/N=C(\c2ccc(C3CC3)nc2)C2CC2)cc1 | 22%
Cc1cccc(OCC(=O)N(Cc2ccco2)c2c(N)n(Cc3ccccc3)c(=O)[nH]c2=O)c1 | -30%
O=C1CCC(C(=O)Nc2cccc(Oc3ccccc3)c2)=NN1 | 20%
Cc1nc(CC(C)C)cc(C(=O)N2CCCC(Nc3ccc(C)c(C)c3)C2)n1 (stereo unspecified) | -12%
COc1ccc(C2=NN(C(=O)CSc3ncccn3)C(c3ccc(C)cc3)C2)cc1 (stereo unspecified) | 2%
CCOc1ncccc1C(=O)N(CC)CC(=O)Nc1ccc(NC(C)=O)cc1 | -20%
CCN(C(=O)Cn1cnc2c1c(=O)n(C)c(=O)n2C)C1CCCCC1 | 5%
CC1=NN(c2ccc(C(=O)OC(C)C)cc2)C(=O)/C1=C\C=C\c1ccco1 | 1%
C/C(=N/O)c1c(O)c(C)c(-c2ccccc2)n(-c2ccccc2)c1=O | 0%
COc1ccc(CNC(=O)C2=C(C)C(=O)OC23CCC(C)CC3)cc1 (stereo unspecified) | -11%
COc1ccc(/C(C)=N/Nc2nc3ccccc3nc2C)cc1 | 33%[activator]
CCN(CC(=O)Nc1c(F)cccc1F)C(=O)c1ccc(C2SCCS2)cc1 | -25%
Cc1cc(C)c2c(n1)nn1c(NCCCN(C)C)cc(C)nc21 | 0%
CN(C(=O)c1ccc2nccnc2c1)C1CCCCC1 | -23%
Cc1ccc(NS(=O)(=O)c2ccc3c(c2)N(C)CCO3)cc1 | 2%
CCCn1c(=O)n(C)c(=O)c2c(SC(C)C(=O)NCC3CCCO3)nc(CC(C)C)nc21 (stereo unspecified) | 10%

At a glance, some entries already given.
SMILES | VDR inh
Cc1ccc(NS(=O)(=O)c2ccc3c(c2)N(C)CCO3)cc1 | 2%
CCCn1c(=O)n(C)c(=O)c2c(SC(C)C(=O)NCC3CCCO3)nc(CC(C)C)nc21 (stereo unspecified) | 10%

Continued.
SMILES | VDR inh
COc1cc(NC(=O)COc2ccc(F)cc2)nc(OC)n1 | 11%
CCOc1cc(C2NC(=O)CCC2[N+](=O)[O-])cc(Br)c1OCC (stereo unspecified) | -20%
CCCCN1C2CCCC1CC(NC(=O)c1cccc(OC)c1)C2 (stereo unspecified) | -2%
COC(=O)c1ccc(COC(=O)CNC(=O)CNC(=O)c2ccc(OC)cc2)cc1 | 3%
COc1ccc(C2c3c(n(C)c4ccccc34)C(=O)N2CC(=O)Nc2cccc(Cl)c2C)cc1 (stereo unspecified) | 9%
CC(C(=O)Nc1ccc(S(=O)(=O)N2CCOCC2)cc1)N1CCN(c2ccccn2)CC1 (stereo unspecified) | -8%
COc1ccc(C(=O)NCCNc2ccc([N+](=O)[O-])cc2)cc1 | 7%
COc1ccc(C(=O)NCC(c2ccc3c(c2)OCO3)N2CCN(c3ccccc3F)CC2)cc1 (stereo unspecified) | -6%
CCCn1cc(S(=O)(=O)c2ccccc2)c(=O)c2cc(F)c(N3CCCCC3)cc21 | 13%
CC(=O)Nc1ccc(NC(=O)c2ccc(-n3c(C)ccc3C)cc2)cc1 | -9%
CC[C@H](C)[C@@H](CNC)NC[C@@H](Cc1ccc(O)cc1)NCC(C)(C)C | -22%
CCCn1nc(NC(=O)CC(C)C)c2cc3cccc(C)c3nc21 | 33%[activator]
COc1ccc(CN2CCNC(=O)C2CC(=O)N(C)Cc2ccccn2)cc1OC (stereo unspecified) | -6%
CCn1c2ccccc2c2cc(NC(=O)C/C(C)=N/NC(=O)c3ccccc3N)ccc21 | -2%
CCOC(=O)c1c(C)[nH]c(CCC(=O)Nc2ccccc2C(F)(F)F)c1C | 12%
O=C(O)c1cc(-c2ccc(C(F)(F)F)cc2)nc2n[nH]c(-c3ccccc3)c12 | 9%
CCN(CC)C(=O)C1CCCN(c2ccc([N+](=O)[O-])cc2[N+](=O)[O-])C1 (stereo unspecified) | 17%
O=C(Nc1ccccn1)c1ccc(S(=O)(=O)c2ccc(Cl)cc2)cc1 | -3%
Cc1ccc(NC(=O)CCl)c(C)c1 | -8%
Cc1ccc(CNc2ncnc3[nH]ncc23)cc1 | -15%

An excerpt of these results, with each value named.
CCn1c2ccccc2c2cc(NC(=O)C/C(C)=N/NC(=O)c3ccccc3N)ccc21
- VDR inh: -2%
CCOC(=O)c1c(C)[nH]c(CCC(=O)Nc2ccccc2C(F)(F)F)c1C
- VDR inh: 12%

Other records:
SMILES | VDR inh
Cc1no[n+]([O-])c1COc1cccc(/C=N/Nc2nncn2N)c1 | ?
NC(=O)c1nsc(C(=O)N(CC(=O)NCc2ccc3c(c2)OCO3)C2CCCC2)c1N | 1%
CCC(CO)Oc1cc(NC(=O)Cc2ccccc2)c2ncn(C(C)C)c2c1 (stereo unspecified) | -22%
Cc1onc(-c2ccccc2Cl)c1C(=O)Nc1nnc(-c2ccc(Cl)cc2Cl)s1 | 14%
O=C(CN1C(=O)NC2(CCCCCC2)C1=O)Nc1ccc2c(c1)CCC2 | -13%
COc1ccc(C)cc1Nc1cc(C)nc(C)n1 | 11%
Cc1ccc(CN2C(=O)c3ccccc3Sc3ccc(C(=O)NCc4ccco4)cc32)cc1 | -10%
COc1ccc(C(=O)NC(=S)NC2CCSC2=O)cc1 (stereo unspecified) | -4%
COc1ccc(C2OCC(C)(C)CO2)cc1OC | 13%
CC(=O)c1cc(-c2ccc(F)cc2)n(CCC(=O)Nc2cc(C)[nH]n2)c1C | -14%
N#C/C(=C\c1ccccc1)c1nc2ncccc2[nH]1 | -4%
CC(=O)N1c2c(cc(Br)cc2S(=O)(=O)N2CCCCC2)CC1C (stereo unspecified) | 14%
S=c1[nH]nc(-c2cnccn2)n1-c1ccccc1 | 1%
Cc1nc(Cc2nnc(SCC(=O)N3CCN(c4ccc(F)cc4)CC3)o2)cs1 | -8%
O=C(CSc1ncc(C(F)(F)F)cc1Cl)N1CCN(S(=O)(=O)c2ccc(Cl)cc2)CC1 | 7%
CCOc1cc(Br)c(C=O)cc1OCC | -22%
COc1ccc(NS(=O)(=O)c2cccc(C(=O)NCc3ccccc3CN3CCOCC3)c2)cc1 | -11%
CCC(=O)N(Cc1cc2cc(OC)ccc2[nH]c1=O)c1cc(C)ccc1C | 0%
CCOc1cc(CNCCO)cc(Br)c1OCc1ccccc1Cl | 5%
COc1cccc(CNCCCSc2nnnn2C)c1 | 21%

Reprinted at random: three records from the list, in no set order.
SMILES | VDR inh
CC(=O)N1c2c(cc(Br)cc2S(=O)(=O)N2CCCCC2)CC1C (stereo unspecified) | 14%
COc1cccc(CNCCCSc2nnnn2C)c1 | 21%
CCC(=O)N(Cc1cc2cc(OC)ccc2[nH]c1=O)c1cc(C)ccc1C | 0%

More compounds follow:
SMILES | VDR inh
C/C(=N/NC(=O)CSCc1ccc(Cl)cc1)c1cccc(NC(=O)c2ccccc2)c1 | -11%
O=C(CN1CCCCC1)Nc1ccc(S(=O)(=O)c2ccc(NC(=O)CN3CCCCC3)cc2)cc1 | 3%
CC(C)(C)c1ccc(S(=O)(=O)N2CCCCC2)cc1 | -7%
CN(CC(=O)NCCc1ccccc1)CC(=O)Nc1cccc(F)c1 | -8%
Cc1ccc(C2(C)NC(=O)N(CC(=O)N3CCN(S(=O)(=O)c4cccc([N+](=O)[O-])c4)CC3)C2=O)cc1 (stereo unspecified) | -21%
Cc1ccc(Nc2c(-c3cc(Br)ccc3F)nc3cc(C)ccn23)cc1 | 4%
COc1ccc(NC2CC(=O)N(c3cccc([N+](=O)[O-])c3)C2=O)cc1 (stereo unspecified) | -21%
Cc1csc(SCC(=O)N(C)CC(=O)Nc2ccccc2Cl)n1 | -4%
CCOc1ccc(-n2c(=O)c3c(C)c(C)sc3n(Cc3ccc(C(C)(C)C)cc3)c2=O)cc1 | 20%
O=C(NCCc1c[nH]c2ccccc12)c1cc(Cl)c2c(c1)OCO2 | -7%

Filtered by structure, the compounds so far with bromine (six)
SMILES | VDR inh
Nc1n[nH]c(-c2ccc(Br)cc2)c1Cl | 10%
CCOc1cc(C2NC(=O)CCC2[N+](=O)[O-])cc(Br)c1OCC (stereo unspecified) | -20%
CC(=O)N1c2c(cc(Br)cc2S(=O)(=O)N2CCCCC2)CC1C (stereo unspecified) | 14%
CCOc1cc(Br)c(C=O)cc1OCC | -22%
CCOc1cc(CNCCO)cc(Br)c1OCc1ccccc1Cl | 5%
Cc1ccc(Nc2c(-c3cc(Br)ccc3F)nc3cc(C)ccn23)cc1 | 4%

(listing goes on)
SMILES | VDR inh
COc1ccc(/C=C/c2nc(C#N)c(N3CCC(C)CC3)o2)cc1OC | -3%
CNC(=S)NNc1nc(-c2ccccc2)c2cc(Cl)ccc2n1 | -6%
CCc1ccc(C2c3[nH]c4ccccc4c3CCN2C(=O)c2cc(C)nn2C)cc1 (stereo unspecified) | 1%
COc1ccc(CNC(=O)CNC(=O)N2CC(=O)Nc3ccccc32)cc1 | 3%
O=S1(=O)CCOCCCN1Cc1ccccc1F | 8%
COc1ccc(OC)c(C(=O)c2ccc(Cl)cc2)c1 | 10%
O=C1c2cccc3c([N+](=O)[O-])ccc(c23)C(=O)N1c1ccc(Cl)cn1 | -6%
O=c1c2ccccc2nc(-c2ccc(Cl)c(Cl)c2)n1O | 44%[activator]
Cc1cc(Nc2cc(F)ccc2C)n2ncnc2n1 | -26%
CCCn1c2ccccc2c2cnn(CC(=O)NCCc3ccc(OCC)cc3)c(=O)c21 | -3%
CCCn1nc(C(=O)Nc2cc(OCC)c(N3CCOCC3)cc2OCC)c2ccccc2c1=O | -8%
O=C(Nc1ccc(F)cc1)N1CCCN(c2ccc(C(F)(F)F)cn2)CC1 | 5%
CCOC(=O)C1(CC)CC(CSc2nc3ccccc3[nH]2)OC1=O (stereo unspecified) | 11%
CCC(C)c1ccc(OCC(=O)NNC(=O)C2CCCCC2)cc1 (stereo unspecified) | 2%
CCOC(=O)c1ccc(NC(=O)C2=C(C)Nc3nc(SCc4ccc(Cl)cc4)nn3C2c2ccc(OC)cc2)cc1 (stereo unspecified) | 7%
O=S(=O)(c1ccc(F)cc1)c1nc(-c2ccccc2F)oc1N1CCCCC1 | -13%
CCn1c(Cc2c(C)[nH]c3ccccc23)n[nH]c1=S | 15%
CCOc1cccc(-c2c(C(=O)N/N=C(\C)c3ccccn3)nnn2-c2nonc2N)c1 | -8%
CC1=NNC(=O)C1Oc1ccccc1 (stereo unspecified) | -6%
O=C(/C=C/c1ccc2c(c1)OCO2)Nc1nc(-c2ccccc2)cs1 | 1%
CCOC(=O)c1c(NC(=O)CNCCOC)sc2c1CCCC2 | 11%
N=c1ccn(Cc2c(Cl)cccc2Cl)cc1 | -6%
Cc1cc(C)cc(NC(=O)c2cc(Cl)sc2Cl)c1 | -4%
CC(C)C[C@@H](CNCC(=O)[C@H](Cc1c[nH]c2ccccc12)NC(=O)c1[nH]cnc1C(=O)N[C@@H](C)CN)NC(=O)c1nc[nH]c1C(=O)N[C@@H](C)C(=O)O | -17%
COCC(C)n1c(SCC(=O)NC(=O)Nc2ccc3c(c2)OCCO3)nc2ccccc2c1=O (stereo unspecified) | -3%
COc1ccc(C2C(C(N)=O)=C(C)Nc3nc(CCCO)nn32)cc1 (stereo unspecified) | -10%&0%
CC(C)CN(CCCNC(=O)CN1C(=O)COc2ccc(S(=O)(=O)N3CCOCC3)cc21)CC(C)C | 4%
N#CCCN(Cc1cccnc1)C(=S)NC(=O)c1ccco1 | -7%
COCCCn1c(=O)c2sccc2n2c(CCCC(=O)Nc3cccc(C(F)(F)F)c3)nnc12 | 5%
Cc1c(NC(=O)CSc2n[nH]c(-c3ccccc3)n2)c(=O)n(-c2ccccc2)n1C | 9%
CC1CCN(S(=O)(=O)c2ccc3[nH]cc(C(=O)NCc4ccc(F)cc4)c(=O)c3c2)CC1 | 6%
O=C(CCNC(=O)C1CCN(S(=O)(=O)c2ccc(F)cc2)CC1)NCc1cccc(Cl)c1 | -25%
CCOc1nc(Oc2cccc(C(=O)O)c2)nc(Oc2cccc(C(=O)O)c2)n1 | -4%
CC(C)(C)c1ccc2c(c1)N(CC(=O)N1CCCC1)C(=O)CO2 | -3%
O=C1N/C(=C\c2ccccc2)c2ccccc21 | 9%
COc1ccc(C(=O)N2CCC(C(=O)NCc3ccccn3)CC2)cc1 | -2%
Cc1occc1C(=O)Nc1ccc(S(=O)(=O)N2CCCC2)cc1 | 10%
NNc1nc2cc3c(cc2s1)OCCO3 | 6%
COc1ccc(OC)c(-c2csc(NC(=O)C3=NN(c4ccccc4)C(=O)CC3)n2)c1 | 1%
O=C(CCS(=O)(=O)c1ccc(Br)cc1)N1CCN(Cc2ccccc2)CC1 | 7%
CC(C)(C)c1ccc(OCCC(=O)NNC(=O)c2ccccc2)cc1 | -5%
CCCCc1ccc(N/C(N)=N/c2nc(C)cc(C)n2)cc1 | 11%

Compound activity (PubChem BioAssay)
